# Screening data: PubChem, Fisher Drug Discovery Resource Center
# NPYLR7 ag: mosquito NPYLR7 agonism; 0.15% of 270,000 active; activation, % at 10 µM; AID 1259423; HEK293T NPYLR7/Galpha15, GCaMP6s calcium fluorescence; in the data active = activation above about 40%;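 note: 0% = vehicle and 100% = reference agonist at the receptor; some compounds past the cut are filed as inactive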
# NPYLR7 ag max-min: further read-out of NPYLR7 ag, marked with its call; activation, %; measured here: Max-Min RFU normalised activation; some inactives read as strong as hits;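 span of the calcium signal over five minutes; 0% = vehicle and 100% = native peptide agonist; compound fluorescence can raise it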
# The depositor's hits bear a star; & = joins results of further samples. Some of the compounds tested; the hit share may differ from the screen's.
SMILES	NPYLR7 ag	NPYLR7 ag max-min
CCc1nc(CS(=O)Cc2ccc(OC(F)F)cc2)cs1 (configuration not stated)	4	7
CSc1n[nH]c(-n2ccc3c(cnc4c(-c5ccccc5)c(C)nn43)c2=O)n1	1	2
CC(C)N(CC(N)=O)c1ncnc2sc(-c3ccccc3)cc12	1	-3
CCN(Cc1ccncc1)C(=O)c1cc(NC(C)=O)ccc1Cl	7	0
CC(C)N(Cc1nc2scc(-c3ccc(Cl)cc3)c2c(=O)[nH]1)CC(O)COCc1ccco1 (configuration not stated)	6	3
CC(NC(=O)c1cc(-c2ccc([N+](=O)[O-])cc2)nn1-c1ccc(Cl)cc1)c1ccccc1 (configuration not stated)	-4	-8
Clc1ccc(-c2nc(CSc3nnnn3-c3ccccc3)cs2)cc1	1	12
COC(=O)c1ccc2oc(=O)n(C3CCN(C(=O)c4cccs4)CC3)c2c1	14	15
COc1ccccc1-c1nc(NC(C)=O)nc(NC(C)=O)n1	-1	-3
Cc1cccc(CCC(=O)N2CCC(CN(C)C)CC2)c1	14	10
Cc1nc2ccc(C(=O)NC3CCN(Cc4ccccc4)CC3)cn2c1N(C)C=O	12	13
COc1cc2nc(COc3ccc(C#N)cc3)n(CC#N)c(=O)c2cc1OC	2	1

# Additional structures follow:
SMILES	NPYLR7 ag	NPYLR7 ag max-min
CCC(C(=O)N1CCN(c2nc(-c3ccc(Cl)cc3)nc(C)c2Cc2ccccc2)CC1)c1ccccc1 (configuration not stated)	7	18
COc1cccc(C(O)C2OC(=O)c3ccccc32)c1OC (configuration not stated)	2	2
Cc1ccc(C=CC(=O)NC(C)c2ccc(-n3cncn3)cc2)c(Br)c1 (configuration not stated)	-2	1
CC(=O)Nc1ccc(S(=O)(=O)Oc2cc(C)nc3ncnn23)cc1	0	-3
COc1ccc(-c2cccc(-c3ccc(NC(=O)C=C(C)C)cc3)n2)cc1	-4	-10
O=C(N=C1N=C2C=CC(Br)=CN2Cc2ccccc21)Nc1ccccc1	-2	11
O=C(CC1CC2CCC1C2)N1CCN(S(=O)(=O)c2ccc3c(c2)OCCCO3)CC1 (configuration not stated)	4	4
COc1ccc(N2CCN(S(=O)(=O)CCCNC(=O)c3ccc(=O)[nH]c3)CC2)cc1	-2	-3
O=c1[nH]c2ccccc2c2cn(-c3ccccc3)nc12	7	6
CCOc1ccc(NC(=O)Cn2cc(OC)c(=O)cc2CSc2ncccn2)cc1	-4	-8
CC(C)O[C@H]1CN(S(=O)(=O)NCc2ccccc2)C[C@@H]1O	5	-11
CS(=O)c1cccc(NC(=O)COc2ccc(F)cc2F)c1 (configuration not stated)	6	5

# (next part)
SMILES	NPYLR7 ag	NPYLR7 ag max-min
CC1CC(=O)Nc2ccccc2N1C(=O)CNc1cccc(C#N)c1 (configuration not stated)	3	1
COc1ccc(CCN2C(=O)CC(N3CCN(C)CC3)C2=O)cc1OC (configuration not stated)	2	2
C=C(Cl)CSc1nnc(-c2ccncc2)n1-c1ccc(F)cc1	17	4
N[C@@H](Cc1ccc(F)cc1)C(=O)O	-3	-14
COc1ccc(NC(=O)CCC2CCCN(Cc3cccc(C(C)=O)c3)C2)c(C)c1 (configuration not stated)	6	3
O=C1[C@H]2CC=CC[C@H]2C(=O)N1CCCn1cccn1	3	1
Cc1cc(C(=O)N2CCC2(C)C(=O)NCC(F)(F)F)nn1C (configuration not stated)	13	13
CCOC(=O)c1sc(NC(=O)CCN2C(=O)c3ccccc3C2=O)c(C(=O)OCC)c1C	5	-4
Cc1cc(F)ccc1-c1c(-c2ccccc2)ncn1CCCn1ccnc1	7	3
CCCCc1ccc(NC(=O)CSc2nc(C)nc3c2c(=O)n(C)c(=O)n3C)cc1	6	12
COc1cc(OC)cc(-c2nn(-c3cc(C)ccc3C)c(OC(C)=O)c2-c2ccc(NC(=O)c3ccc(F)cc3)cc2)c1	18	20
NC(=O)c1c(NC(=O)c2sc3cc(F)ccc3c2Cl)sc2c1CCC2	5	2

# Continued.
SMILES	NPYLR7 ag	NPYLR7 ag max-min
CCCc1c(C)nn(-c2ccc(C(=O)NC(C)CC(C)C)cc2)c1C (configuration not stated)	-9	-13
O=C(CCC1CCN(Cc2nc3c(s2)CCCC3)CC1)Nc1ccc2c(c1)OCCO2	14	1
CC1(C)CC(NC(=O)c2cccc(N)c2Nc2ccccc2)CCO1 (configuration not stated)	5	2
NC(=O)c1ccc(CN(C2CC2)S(=O)(=O)c2ccc3c(c2)OCCCO3)cc1	6	6
CN1CCCC2(CCN(Cc3ccccc3C(=O)O)C2)C1=O (configuration not stated)	7	4
COc1ccc(Cn2nc(C(=O)O)c3ccccc3c2=O)cc1F	4	1
O=C(Nc1c2c(nn1-c1ccccc1)CS(=O)C2)c1ccccc1 (configuration not stated)	9	9
COc1cc(OC)cc(C(N)c2nccn2C)c1 (configuration not stated)	7	11
CC(c1ccccc1)N1CCN(C(=O)c2cccnc2Cl)CC1 (configuration not stated)	-2	11
CCN(CC)S(=O)(=O)c1ccc(C(=O)Nc2nc(-c3ccccc3)cs2)cc1	0	-2
CCn1nc(C)c(CNCc2ccc(C(N)=O)nc2)c1C	4	3
Cc1nc(CNC(=O)c2cc3n(n2)CCCN(C)C3)nc2c1CCCC2	13	7

# Compound profiles, as listed above. Values in the order: NPYLR7 ag, NPYLR7 ag max-min
# `CCN(CC)S(=O)(=O)c1ccc(C(=O)Nc2nc(-c3ccccc3)cs2)cc1` across the screens: 0, -2
# `Cc1nc(CNC(=O)c2cc3n(n2)CCCN(C)C3)nc2c1CCCC2` across the screens: 13, 7
# `O=C(CCC1CCN(Cc2nc3c(s2)CCCC3)CC1)Nc1ccc2c(c1)OCCO2` across the screens: 14, 1
# `CC(c1ccccc1)N1CCN(C(=O)c2cccnc2Cl)CC1` (configuration not stated) across the screens: -2, 11
# `CC1(C)CC(NC(=O)c2cccc(N)c2Nc2ccccc2)CCO1` (configuration not stated) across the screens: 5, 2

# The results go on:
SMILES	NPYLR7 ag	NPYLR7 ag max-min
Cc1ccc(CN(Cc2ccccc2)C(=O)CN(C(=O)Nc2c(Cl)cccc2Cl)C2CC2)s1	-2	4
CNCC(=O)NCCc1c(OC)ccc2ccccc12	-1	3
CCCCc1ccc(C(=O)N2CCSC2c2ccc3c(c2)OCO3)cc1 (configuration not stated)	-2	8
O=C(O)c1cccnc1CN1CCCC(Oc2ccc(F)cc2)C1 (configuration not stated)	1	-2
CC(C)Oc1cccc(C(=O)C2CCCN(S(=O)(=O)N(C)C)C2)c1 (configuration not stated)	2	2
O=C(Nc1cc(-c2cc(Br)ccc2Cl)[nH]n1)C1CCCO1 (configuration not stated)	-8	-10
CCCCCNCC(N)=O	-13	-25
COc1ccc(C(=O)Nc2ccc(-c3nc4ccccc4s3)c(O)c2)cc1[N+](=O)[O-]	-2	-9
COc1cccc(C(=O)N/N=c2\oc3c(OC)cccc3cc2-c2nc3ccccc3[nH]2)c1	-4	-10
COc1ccc(NC(=O)N(CC(=O)N(CCc2ccc(OC)c(OC)c2)Cc2ccc(C)s2)C2CC2)c(OC)c1	-4	2
O=C(NCCN1CCN(C(=O)c2ccccc2F)CC1)C(=O)Nc1ccc(F)cc1	-8	3
CNC(=O)c1cc2cc(Br)ccc2oc1=O	5	-5

# Random excerpt: 4 entries already listed
SMILES	NPYLR7 ag	NPYLR7 ag max-min
CC(c1ccccc1)N1CCN(C(=O)c2cccnc2Cl)CC1 (configuration not stated)	-2	11
C=C(Cl)CSc1nnc(-c2ccncc2)n1-c1ccc(F)cc1	17	4
CS(=O)c1cccc(NC(=O)COc2ccc(F)cc2F)c1 (configuration not stated)	6	5
CC(=O)Nc1ccc(S(=O)(=O)Oc2cc(C)nc3ncnn23)cc1	0	-3

# Further results follow.
SMILES	NPYLR7 ag	NPYLR7 ag max-min
Cc1ccc(CNC(=O)c2nnn(CC(=O)Nc3c(C)cc(C)cc3C)c2N)cc1	-6	-12
CC(C)c1ccc(CC(=O)N2CCC2(C)C(=O)Nc2cc(C3CC3)nn2C)cc1 (configuration not stated)	1	-1
CC(=O)NC12CC3CC(C1)CC(C(=O)N(C)Cc1nccn1C(F)F)(C3)C2	0	-1
CCc1cc(=O)[nH]c(-n2nc(C)cc2N)n1	-4	-8
CCOC(=O)C1(CCc2ccccc2)CCN(C(=O)C2CC(=O)Nc3ccccc32)CC1 (configuration not stated)	8	-2
CN(CC(=O)N1CCCC(CCO)C1)S(=O)(=O)c1ccccc1 (configuration not stated)	7	5
CC(=O)Nc1ccc(Nc2nc(C)cc(N3CCCC3)n2)cc1	10	3
COCCN(Cc1nc(C(=O)NCCc2ccc(Cl)cc2Cl)cs1)C(=O)Nc1ccc(Cl)c(Cl)c1	22	17
Cc1n[nH]c(=O)c2c(NC(=O)COC(=O)C3CC4CCCC(C3)C4=O)oc(C)c12 (configuration not stated)	1	3
COc1ccc(-c2nn(CN3CCN(C)CC3)c(=S)o2)cc1OC	0	-1
COC(=O)c1ccc(C(=O)N2CCc3ccccc3C2c2ccc(C)cc2)cc1 (configuration not stated)	0	2
CC1(C(=O)NCc2ccc3c(c2)OCO3)CCN1Cc1ccsc1 (configuration not stated)	3	-1

# Remaining list, next part.
SMILES	NPYLR7 ag	NPYLR7 ag max-min
COCC(=O)N1CCC(C(NC(=O)c2ccc(OC)cc2)C(=O)NC2CC2)CC1 (configuration not stated)	7	4
CCCn1c2c(c(=O)n(C)c1=O)C(=O)C(=Cc1ccc(N(C)C)cc1)N2	259*	223*
CCN(CC)C(=O)C1CCCN(C(=O)c2ccccc2N2CCC(N)CC2)C1 (configuration not stated)	0	10
Cc1c(C(=O)O)sc2nc(/C=C/c3csc4ccccc34)[nH]c(=O)c12	4	2
O=C(CCN1CCc2sccc2C1c1ccccc1)N1CCCN(C(=O)c2ccc(F)cc2)CC1 (configuration not stated)	7	-2
CCN(CC)C(=O)C1=C(C)NC(=S)NC1c1ccc(C)s1 (configuration not stated)	1	-1
CCCCN(CC(=O)N1c2ccccc2-n2cccc2C1c1cc(OC)ccc1OC)C(=O)Cc1ccc(F)cc1 (configuration not stated)	10	18
CCOc1ccc(N(CC(=O)NCCCN(C)C)S(C)(=O)=O)cc1	-7	-13
CCOc1ccc(-c2ncn(CC(=O)NN)c2[N+](=O)[O-])cc1	-6	-12
Nc1nnc(N)c2ccccc12	-1	-2
CN1CCC2(CC1)CN(C(=O)CCCn1cnnn1)CCN2C	8	6
COc1ccc(-c2c3c([nH]c(=S)c2C#N)CCCC3)cc1	13&-2	6&-3

# Next part
molecule	NPYLR7 ag	NPYLR7 ag max-min
Cc1cc(Cl)ccc1-n1c(C(C)N(CCC(C)C)C(=O)Nc2ccccc2Br)nc2ccccc2c1=O (configuration not stated)	2	-4
C=CCCC(O)CN(Cc1c(CC)nn(-c2ccc(F)cc2)c1Oc1ccccc1)C(C)C (configuration not stated)	10	12
CC(C)Oc1ccc(C#N)cc1NC(=O)Nc1cnn(CC(F)F)c1	2	-7
O=S(=O)(Cc1ccccc1)c1nc2ccccc2n1Cc1ccc(Cl)c(Cl)c1	0	-4
CC(C#N)CNC(=O)c1ccsc1NC(=O)c1cccs1 (configuration not stated)	2	-10
COc1cccc(Cn2cccc2CN(C(=O)CN(CC(C)C)C(=O)c2ccc(-c3ccccc3)cc2)C(C)(C)C)c1	-8	-7
COc1cc2c(cc1OC)CN(S(C)(=O)=O)CC2	18	5
O=C(Nc1nc(OCCN2CCCC2=O)cnc1-c1cccc(C(F)(F)F)c1)c1cc2ccccc2s1	12	11
Cc1cc(C)n(C)c(=O)c1C(=O)NC1CC(=O)N(Cc2cccc(F)c2)C1 (configuration not stated)	0	-6
O=S(=O)(c1cc(Cl)ccc1Cl)N1CCN(c2ccccn2)CC1	-4	-6
CC(C)(O)C#Cc1ccc(C(=O)Nc2cnc3n2CCCC3)o1	7	6
Cc1c(C(=O)NCCC#N)cnc2c(-c3cccs3)cnn12	12	1
COC(=O)c1ccc(C2NC(=O)c3n[nH]c(C)c32)cc1 (configuration not stated)	4	8
Cc1cc(C)cc(Nc2ncc([N+](=O)[O-])cc2[N+](=O)[O-])c1	-3	-3
COc1ccc(CCCOC(Cn2ccnc2)c2ccc(OC)cc2)cc1 (configuration not stated)	-11	-15

# Further structures:
molecule	NPYLR7 ag	NPYLR7 ag max-min
C=CCNC(=O)NC1CC(C)(C)Cc2nc(C(C)(C)C)ncc21 (configuration not stated)	-4	-5
COc1cccc(CNC(=O)CCC2CCCN(C(=O)CCC(F)(F)F)C2)c1 (configuration not stated)	3	5
CC(C)CC(=O)NC(C(=O)NCc1ccc(F)cc1)C1CCN(C(=O)c2ccc(Cl)cc2)CC1 (configuration not stated)	6	5
Cc1nn(C(C)(C)C)c(OC(=O)/C=C/c2ccccc2)c1S(=O)(=O)c1ccccc1	0	42
NC(=O)c1cccc(CC2CCN(C(=O)c3cnccn3)C2)c1 (configuration not stated)	-3	-5
CCOC(=O)c1ccc(N=Nc2c(C)[nH]n(-c3nc(-c4ccc(OC)cc4)cs3)c2=O)cc1	-1	-7
C=CCN(Cc1nc(-c2ccccc2)no1)C(=O)CN1CCCCCC1=O	4	2
COc1ccc(C(=O)CSc2nc(=O)n3ccc(C)cc3n2)cc1	2	-2
Cc1cccnc1C(NC(=O)c1ccc(=O)[nH]c1)C(C)C (configuration not stated)	-14	-15
CC1(C(=O)NCCc2ccccc2)Cc2c(-c3cccc(C(N)=O)c3)ccnc2O1 (configuration not stated)	5	9
COc1cc(C=NNP2(=O)C=C(c3ccccc3)OC(c3ccccc3)=C2)cc(OC)c1OC	19	15
c1ccc(CN2CCC3(CCc4ccccc43)CC2)cc1	26	12
CCC(C)(C)NC(=O)c1ccc2c(=O)n(C)c(=O)n(C)c2n1	-3	-3
COc1ccc(OC)c(C2c3[nH]c4ccccc4c3CCN2CC(=O)Nc2cc(C)nn2C)c1 (configuration not stated)	-7	-9
O=C(CNC(=O)c1ccc(Br)cc1)N=Nc1c(O)[nH]c2ccc([N+](=O)[O-])cc12	1	-7
